TRPML1 blocker: qHTS for Inhibitors of the Human Mucolipin Transient Receptor Potential 1 (TRPML1); Mucolipin-1 (Homo sapiens), Q9GZU1; activity change, negative = inhibition, % (test concentration not listed); 0.02% of 390,000 active; TRPML1-inducible cells, Ca2+ dye fluorescence, FDSS; active compounds read low; inhibition of EC80 agonist-evoked calcium signal; in the data active means activity change below about -50%; inconclusive means about -30% to -50%; inactive means above about -30%;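 further: stimulus is agonist 54-4 at its EC80 concentration; on the % scale 0 is the no-effect control and ±100 the full control effect; compound concentration not given in the record; the text of the record puts the active cut at -80%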
Target sequence (Q9GZU1 whole entry, looked up): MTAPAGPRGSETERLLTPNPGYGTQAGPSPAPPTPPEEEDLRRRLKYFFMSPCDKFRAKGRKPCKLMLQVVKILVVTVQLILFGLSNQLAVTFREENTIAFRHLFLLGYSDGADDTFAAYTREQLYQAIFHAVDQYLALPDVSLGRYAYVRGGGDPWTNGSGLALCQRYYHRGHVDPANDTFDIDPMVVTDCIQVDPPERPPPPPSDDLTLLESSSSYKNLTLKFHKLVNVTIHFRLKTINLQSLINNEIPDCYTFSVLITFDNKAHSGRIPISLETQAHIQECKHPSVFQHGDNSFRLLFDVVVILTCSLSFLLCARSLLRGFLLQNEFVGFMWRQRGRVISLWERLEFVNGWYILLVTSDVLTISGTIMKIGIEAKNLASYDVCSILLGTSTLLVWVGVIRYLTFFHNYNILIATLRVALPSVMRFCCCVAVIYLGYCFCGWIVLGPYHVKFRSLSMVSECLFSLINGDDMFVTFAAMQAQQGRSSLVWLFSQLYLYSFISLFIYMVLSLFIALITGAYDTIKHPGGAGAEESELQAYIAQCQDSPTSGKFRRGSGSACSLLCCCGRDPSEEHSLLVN
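Calcium fluorescence in TRPML1-DL cells induced overnight with Tet: a 110 s read after compound pin addition, then a 110 s antagonist read after challenge with 54-4 at 4 uM final (EC80).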
gsp antag: qHTS for Antagonists of gsp, the Etiologic Mutation Responsible for Fibrous Dysplasia/McCune-Albright Syndrome: qHTS; gsp-mutant cells, cAMP HTRF, 30 min; control for the full effect not named in the record; Potency, µM (series often up to 76.9 µM), inactives show at the highest dose activity change, negative = inhibition, hits mostly inhibitors; 0.4% of 340,000 active; AID 624288, 2012; active = falling curve of any shape with a large fitted effect; inconclusive = falling curve, mostly with a smaller effect; inactive = flat or rising curve; cell line not stated here;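 further: intracellular cAMP measured with PDE inhibitor Ro 20-1724 present during compound exposure; potency means the concentration at half of the fitted maximal effect; on the % scale 0 is the no-effect control and ±100 the full control effect; nearly all actives have a fitted effect of over 65% in size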
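HTRF cAMP read-out (cAMP-d2 plus anti-cAMP antibody-K in lysis buffer, 30 min RT). Before lysis, cells are exposed to compounds with […] for 30 min at 37C in DPBS containing Ca/Mg, BSA and Tween 20.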
ClpP mod: qHTS Assay for Activators of ClpP; purified B. subtilis ClpP, FRET peptide cleavage, 20 min; ATP-dependent Clp protease proteolytic subunit (Bacillus subtilis (strain 168)), P80244; AID 651965, 2013; 1.9% of 340,000 active; Potency, µM (series often up to 57.5 µM), inactives show at the highest dose activity change, negative = active; active = well fitted falling curve with a large enough effect; inconclusive = small, poorly fitted or top-dose-only effect; inactive = no such curve, though single readings can be large or run the other way; further: potency means the concentration at half of the fitted maximal effect; the source files actives as falling curves though it sought activators and does not explain the sign; nearly all actives have a fitted effect of over 65% in size; many hits overshoot -100%
Target sequence (P80244 whole entry, looked up): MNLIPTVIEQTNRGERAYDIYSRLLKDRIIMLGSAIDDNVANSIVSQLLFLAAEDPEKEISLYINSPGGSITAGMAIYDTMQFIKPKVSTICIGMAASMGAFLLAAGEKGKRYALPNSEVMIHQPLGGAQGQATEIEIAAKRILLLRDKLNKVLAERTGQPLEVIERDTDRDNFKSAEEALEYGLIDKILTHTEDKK
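Buffer: 100 mM Tris/HCl pH8, 100 mM KCl, 0.05% low protease BSA, 2.5% glycerol, 0.01% Tween-20. ClpP 10 microg/mL final; 20 min RT; delta FRET normalized to ADEP and DMSO controls.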
Menin-MLL FL inh: qHTS Assay for Inhibitors Targeting the Menin-MLL Interaction in MLL Related Leukemias: Competition With Fluorescein Labeled MLL-derived Peptide. Fluorescence polarization, fluorescein-MLL peptide displacement from menin. FP activity change, % at 61.4 µM. 290,000 tested, under 10 active; inconclusive = falling polarisation curve, or a change in total fluorescence; inactive = total fluorescence flat and polarisation flat or rising; no compound was filed as active; the % refers to the polarisation; negative = inhibition;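 further: % of control where 0% means no effect; inhibitors lower the polarisation; unlabelled MLL peptide was the positive control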
TRPML1 agonist: qHTS for Agonists of the Human Mucolipin Transient Receptor Potential 1 (TRPML1). 0.12% of 410,000 active. TRPML1-expressing cells, Ca2+ dye fluorescence, FDSS; host cell line not named in the record; reference of the full effect not given here. Mucolipin-1 (Homo sapiens), Q9GZU1. activation, % (no concentration beside the values); in the data active = activation above about 50%; inconclusive = about 30% to 50%; inactive = below about 30%; further: 0% is about no effect; the text of the record puts the active cut at 80%
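Cells: TRPML1-DL, 1X Tet inducer, ~16 h at 37 degrees C/5% CO2. Dye: ABD Ca8 no-wash + quencher, 45-90 min RT. Read: 10 s baseline, compound add, 110 s agonist phase; 54-4 EC80 (4uM final), 110 s antagonist phase.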
gsp ag: qHTS for Agonist of gsp, the Etiologic Mutation Responsible for Fibrous Dysplasia/McCune-Albright Syndrome: qHTS; gsp mutant cells, cAMP HTRF, 30 min; control for the full effect not named in the record; Potency, µM (highest dose often 76.9 µM), without a hit: at the top dose activation (cAMP increase), usual class: activators; 0.13% of 340,000 active; AID 624287, 2012; active = well fitted activation curve with a large enough effect; inconclusive = small, poorly fitted or top-dose-only effect, or another doubt; inactive = no such curve, though single readings can be large or run the other way; cell line not stated here;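 further: phosphodiesterase inhibitor Ro 20-1724 added with compounds to block cAMP breakdown; potency means the concentration at half of the fitted maximal effect; nearly all actives have a fitted effect of over 60% in size; about a fifth of the inactives were tested at one dose only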
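Cells stably selected in G418 were plated at 2000/well, grown 16-24 hr, then given compounds in DMSO with the PDE inhibitor […] (300 uM solution added) for 30 min at 37C; cAMP was read by HTRF.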
Numbers without * were called inactive; u = inconclusive; x = not tested or not shown; & = joins results of further samples; [ ] = dose if it differs, or a comment. Only part of the results is shown, so the mix of outcomes need not match the whole.

SMILES	TRPML1 blocker	gsp antag	ClpP mod	Menin-MLL FL inh	TRPML1 agonist	gsp ag
COc1cc(OC)c(C=O)c(OC(=O)N(C)C)c1	-16	7%	0.6%	5.0	2.8	5%
O=C1NC(=S)NC(=O)C1=Cc1ccc(OCC(=O)N2CCCC2)cc1	26	-4%	-1.2%	x	0.8	16%
NNC(N)=O	2	3%	-1.0%	2.7	-0.8	x
COC(=O)c1ccc(NC(=O)NC(=O)Oc2ccccc2)cc1	35	9%	-2.6%	x	1.0	7%
CC1(C)NCCN2C(=O)CSC21 (configuration not stated)	0	19%	0.9%	-1.5	0.4	2%
CCN(CC)c1ccc(N=Cc2c(O)[nH]c(=O)[nH]c2=O)cc1	-5	-21%	-2.0%	u	3.7	-85%[inhibitor]
O=C(Nc1ccccc1OC(=O)N1CCCCC1)N1CCCCC1	7	9%	6.2%	2.7	-0.4	-41%[inhibitor]
CN1CCN(c2ncnc3nc[nH]c23)CC1	17	9%	-0.8%	-1.3	-0.6	0%
C[C@]12CC[C@@H](O)CC1=CC(=O)C1C2CC[C@]2(C)C(=O)CCC12 (some centres not stated)	36	4%	2.5%	x	0.3	u
COCCNC(=O)CN1C(=O)C(C)N=C(c2ccccc2)c2cc(Cl)ccc21 (configuration not stated)	-13	8%	-2.4%	10	-0.5	-4%[15.4 µM]
O=C1CC(=O)N(c2cccc(Br)c2)C(=O)N1	-24	12%	x	5.1	0.9	3%
CN1CCN(c2nc(N(C)C)oc(=O)c2C#N)CC1	-8	9%	-0.8%	1.9	-1.0	5%
CSc1ccc(/C=C/c2nc3ccccc3c(=O)n2-c2cccc(Cl)c2C)cc1	2	x	0.3%	x	1.1	x
CCOC(=O)[C@]12Cc3cc(OC)ccc3[C@H]1N(Cc1ccccc1)C(=O)c1cc(F)c(F)cc12	-13	-15%	-2.4%&-0.4%	x	1.5&-0.1	x
CCN(CC)CCCN=Cc1c(O)n(-c2ccccc2F)c(=O)[nH]c1=O	-7	10%	-1.1%	-3.9	-0.6	-22%
C#CCOc1ccc2c(c1)c(C(C)=O)c(C)n2Cc1ccccc1	25	-19%	-1.8%	-0.7	2.6	-8%[15.4 µM]
C[C@@H]1CCCCO[C@@H](CN(C)S(=O)(=O)c2ccc(F)cc2)[C@@H](C)CN([C@H](C)CO)C(=O)c2cc(N(C)C)ccc2O1	20	x	-3.5%	x	-0.2	-112%[inhibitor]
CCOP(=O)(c1ccccc1)c1nc(-c2ccc(F)cc2)oc1N1CCCCC1 (configuration not stated)	8	-13%	u	-3.8	1.0	17%
CCCCCn1c(N)c(C(=O)NCCN2CCOCC2)c2nc3ccccc3nc21	13	12%	8.9µM*	6.8	-0.7	23%
CC(=O)OCC[N+](C)(C)C	-1&23&26	-2%&13%&-10%	1.2%&0.7%&-4.0%	1.8&-1.6&-8.5&-3.8	3.0&4.6&6.4	x
O=C1CN=C(c2ccccc2)c2cc([N+](=O)[O-])ccc2N1	5	-4%	1.0%	3.2	-0.5	x
Cc1ccc(S(=O)(=O)N(C)c2ccc(C(=O)NCC3(N(C)C)CCCCC3)cc2)cc1	34	-3%	-1.1%	x	0.6	3%[15.4 µM]
CCN(CC)CCSc1nc2ccccc2c(=O)n1-c1ccc(Cl)cc1	-15	x	1.2%	x	0.2	x
CC1=CC(=O)C2=C(C)C[C@H](O)[C@@H]3[C@H](OC(=O)[C@H]3C)[C@@H]12	2	-5%	-0.4%	x	0.2	x
CS(=O)(=O)N1Cc2cnnn2-c2ccccc2C1C#N (configuration not stated)	21	-3%	-3.9%	x	0.8	x
SMILES	TRPML1 blocker	gsp antag	ClpP mod	Menin-MLL FL inh	TRPML1 agonist	gsp ag
CCOC(=O)C1=C(N)OC2=C(C(=O)CCC2)[C@]12C(=O)N(CC(N)=O)c1ccccc12	18	1%	-0.4%	3.1	4.8	-14%
CCNC(=O)N1Cc2ccccc2-n2nncc2C1	20	x	-1.3%	x	0.1	-49%
Fc1ccccc1CNC1CN2CCC1CC2 (configuration not stated)	-18	-2%	x	-4.8	0.8	20%[15.4 µM]
CCCCOP(=O)(c1ccc(N(C)C)cc1)C(Nc1ccccc1)c1ccccc1 (configuration not stated)	9	u	-3.8%	0.3	2.4	-57%[inhibitor]
C=Cc1ccc(Cn2c(C(=O)O)c(C=O)c3ccccc32)cc1	69	x	x	10	-0.3	-5%[15.4 µM]
COC(=O)C(O)(c1ccc(NC(=S)NC(=O)c2ccc(Cl)cc2Cl)c(C)c1)C(F)(F)F (configuration not stated)	35	u	-1.9%	4.8	6.8	15%[15.4 µM]
C=CCn1c(O)c(C(C)=Nc2ccc(NC(C)=O)cc2)c(=O)[nH]c1=O	-11	4%	1.1%	-1.2	-1.2	0%
O=C(Nc1ccc(Cl)cc1)OC1CN2CCC1CC2 (configuration not stated)	11	8%	0.0%	2.0	0.8	15%[15.4 µM]
CC1CC2(O)c3no[n+]([O-])c3CCC2N1O (configuration not stated)	0	8%	0.6%	-0.5	0.1	3%
COC(=O)C1=C(c2ccc(OC)c(OC)c2)C[C@@H]2CC[C@H]1N2C(=O)NCCNC(C)=O	-16	11%	-0.8%	x	0.3	x
CCc1ccccc1N1C(=O)CC(=O)NC1=O	26	-11%	-7.5%	16	-0.8	13%[15.4 µM]
CC(=NCCN1CCCCC1)c1c(O)n(-c2ccc(Cl)cc2)c(=O)[nH]c1=O	8	2%	2.1%	5.2	0.2	19%
NC(=O)Cn1cc(C(=O)c2ccccc2)c2ccccc21	4	-2%	x	-6.1	0.4	24%
CCCC1(CCO)C(=O)NC(=S)NC1=O	-6	4%	0.7%	x	0.1	-1%[15.4 µM]
Cc1ccc(CN2CCN(CC(=O)N3CCC4(CC3)OCCO4)C2=O)cc1	3	3%	1.0%	-1.5	-0.9	-3%
COc1cc(OC)c(OC)cc1CN1CCN(C(=O)Cc2ccccc2)CC1	-3	0%	-2.1%	-1.0	0.0	-12%
Cc1ccc(C(c2sc3nc(C)nn3c2O)N2CCOCC2)cc1 (configuration not stated)	12	6%	-0.1%	u	-0.6	-16%
C=CCn1c(O)c(C(C)=NCCc2c[nH]c3ccccc23)c(=O)[nH]c1=O	10	6%	-3.3%	1.3	-0.3	0%[15.4 µM]
CC12CN3CCN(CC(C3)/C1=N/NC(N)=O)C2	-10	11%	x	-0.2	-0.6	-19%
Cn1c(O)c(C(=O)c2ccccc2)c(=O)n(C)c1=O	-15	10%	-6.1%	1.7	-0.2	6%
C[C@]12C=CC(=O)C=C1C=C[C@@H]1C2CC[C@]2(C)C(=O)CCC12 (some centres not stated)	-11	2%	-2.6%	4.8	0.5	13%
CCCC(C)C(=O)NC1CCSC1=O (configuration not stated)	-12	2%	-0.6%	-1.7	-0.4	-24%
COc1cc(C)c(CNCCc2c[nH]c3ccccc23)cc1C	-18	8%	1.9%	-0.3	2.0	-35%[inhibitor]
C=CCNC(=S)Nc1ccc(OC(=O)Nc2ccc(Cl)c(Cl)c2)cc1	-8	3%	1.7%	-0.4	-0.4	-19%
O=C(O)C1C2c3ccccc3C(O)C1(C(=O)O)c1ccccc12 (configuration not stated)	9	12%	1.0%	x	-0.2	18%
SMILES	TRPML1 blocker	gsp antag	ClpP mod	Menin-MLL FL inh	TRPML1 agonist	gsp ag
C[C@]12CC[C@H](O)CC1=CCC1C2CC[C@@]2(C)C1C[C@@H]1CC(=O)O[C@@H]12 (some centres not stated)	-3	2%	x	x	1.8	6%
CCOC(=O)C1(c2ccccc2)Oc2ccccc2C(c2ccc(OC)cc2)=C1C(=O)OC (configuration not stated)	-1	-6%	-4.5%	0.1	0.6	x
CN1CCN(Cc2cc3c(cc2[N+](=O)[O-])OCO3)CC1	3	10%	x	-3.0	0.2	-22%
Cc1nn(Cc2ccccc2)c(Cl)c1C(=O)O	37	0%	x	-2.2	0.2	4%
Cc1cc(C)n(-c2ccc([N+](=O)[O-])cc2)n1	5	-1%	-0.1%	-0.1	0.8	-71%[inhibitor]
CCN(CC)C(=O)c1ccc(NC(=O)c2cccc(F)c2)cc1	-2	4%	-1.3%	-2.9	-1.5	2%
CC(=O)O[C@H]1C[C@@H]2OC3C=C(C)CCC3(C)[C@@]1(C)[C@@]21CO1 (some centres not stated)	-6	4%	-3.1%	x	0.2	10%
COc1ccc(Cn2c(O)c(/C=N/NC(=O)c3ccccc3O)c(=O)[nH]c2=O)cc1	-14	-6%	x	20	-0.5	-6%[15.4 µM]
CC(C)c1ccc(N2C(=O)NC(=O)/C(=C\C=C\c3ccco3)C2=O)cc1	19	u	x	u	9.8	-55%[inhibitor]
C#CC(CC)(CC)NC(=O)Nc1ccc(OCC)cc1	-1	6%	x	1.1	-0.5	-9%
COc1ccc(C(=O)CC2C(=O)N(C)C(=O)N(C)C2=O)cc1	-14	-7%	-4.4%	-0.8	0.9	26%
O=C(c1cccc([N+](=O)[O-])c1)C12CN3CN(CN(C3)C1)C2	29	13%	0.8%	0.4	-1.2	-5%[15.4 µM]
COC(=O)C1=C(c2ccc(F)cc2OCc2ccccc2)C[C@@H]2CC[C@H]1N2C(=O)NCC1CC1	21	-7%	1.1%	x	1.5	-33%[inhibitor]
C=CCOC(=O)C1C(C(=O)O)C2(Cl)C(Cl)=C(Cl)C1(Cl)C2(Cl)Cl (configuration not stated)	-7	8%	x	x	-0.2	-18%
CN(C)P(=NC(=S)c1cccn1C)(N(C)C)N(C)C	12	-2%	1.5%	1.8	0.7	1%
O=c1[nH]c(=S)n(Cc2ccc(F)cc2)c(O)c1C=NCCCn1ccnc1	5	-1%	-2.0%	4.7	-0.4	-3%[15.4 µM]
CCN(CC)C(=O)c1ccc(NC(=O)CSc2nnnn2-c2cc(OC)ccc2OC)cc1	10	-30%	-2.5%	4.4	1.9	-8%
COC(=O)C1=C(c2ccc(F)cc2F)C[C@@H]2CC[C@H]1N2C	-17	-1%	-0.1%	x	-0.2	-2%
Cc1nc2ccccc2c(=O)n1-c1cccc(C(F)(F)F)c1	-13	-7%	28µM*	2.6	-0.4	20%[15.4 µM]
CCOC(=O)N(C)c1ccc(C(O)(C(=O)OCC)C(F)(F)F)cc1 (configuration not stated)	5	2%	0.7%	1.1	-0.8	-30%
Cc1ccc(S(=O)(=O)Nc2cc(C(=O)N3CCC4(CC3)OCCO4)ccc2N2CCCCC2)cc1	-7	-14%	-3.1%	1.2	2.3	4%
